Source: PubChem BioAssay (Fisher Drug Discovery Resource Center)
NPYLR7 agonist – activates Aedes aegypti NPYLR7 receptor | HEK293T NPYLR7/Galpha15, GCaMP6s calcium fluorescence | 270,000 compounds, 0.15% hits | activation, % at 10 µM | AID 1259423; in the data active = activation above about 40%;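 also: 0% = vehicle and 100% = reference agonist at the receptor; some compounds past the cut are filed as inactive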
NPYLR7 agonist max-min – recorded beside NPYLR7 agonist, whose call it bears; activation, %; measured here: Max-Min RFU normalised activation; some inactives read as strong as hits;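 span of the calcium signal over five minutes; 0% = vehicle and 100% = native peptide agonist; compound fluorescence can raise it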
The depositor's hits bear a star; & = joins results of further samples. Only part of the results is shown; count on the stated rates, not on these rows.

SMILES	NPYLR7 agonist	NPYLR7 agonist max-min
O=C(c1ccccc1)N1CCC(N2C[C@H](Oc3ccccn3)[C@H]3C[C@@H]2CC[C@H]3O)CC1	24.7	32.0
Cc1ccc2nc(COC(=O)c3sc(NC(=O)C(C)(C)C)cc3C)cc(=O)n2c1	-1.2	0.0
Clc1ccc(-c2nc(CSc3nnc(Cn4cncn4)o3)cs2)cc1	0.5	-5.3
CCCCC(CC)C(=O)NCc1nnc(SCc2cccc(C)c2)n1-c1cc(Cl)ccc1Cl (stereo not given)	15.1	25.5
CC1(C)CC(NS(=O)(=O)NCc2ccccc2)CC(C)(C)N1	-0.8	1.9
CCCn1c(=O)c2c(nc3n2CC(C)=NN3CC(N)=O)n(C)c1=O	10.9	13.7
Cc1cccc(C(=O)N2CCN(c3ccc(Cl)cc3)C(=O)C2C)c1 (stereo not given)	-0.7	5.9
CCc1nccn1CC(=O)Nc1cccc(C(=O)Nc2c(C)cccc2C)c1	0.1	-7.8
Cc1ccc(C)c(S(=O)(=O)c2cnc(SCC(=O)Nc3ccccc3C(F)(F)F)[nH]c2=O)c1	-7.4	-13.3
Cc1cc(NC(=O)CSc2ncc(C)c(=O)[nH]2)no1	-0.9	-3.5
O=C(Cn1ncc(Cl)c(Cl)c1=O)NC(=O)NC1CCCC1	-4.4	-6.4
Cc1ccc(C)c(Oc2ccc(CNC(=O)N3CCC(C#N)CC3)cn2)c1	-3.5&-4.6	-1.2&-5.2
O=c1oc(-c2cccs2)nn1CN1CCN(Cc2cccs2)CC1	8.7	14.3
COc1ccc(CCN(Cc2ccc(C)o2)C(=O)CN(CCN2CCOCC2)C(=O)NC(C)(C)C)cc1OC	-0.1	2.2
COCCN(CC(=O)N1CC(=O)N(c2ccc(Cl)cc2)C1)C(=O)N(C)C	-3.9	7.8
O=C(O)CCCC(=O)N1CCCC1	0.3	5.7
CN(C)c1cccc(-c2cc(-c3ccc(C(=O)c4ccccc4)cc3)cnc2N)c1	-3.5	-7.8
NC(=O)c1ccc(NC(=O)CCCn2nc(-c3ccc(F)cc3)ccc2=O)cc1	2.9	3.3
C=CCN(C(=O)C(=O)N1CCCCC1C)C(C)C (stereo not given)	-2.7	-5.3
CN(Cc1ccccc1)C(=O)c1ccc2sc([C@H]3C[C@H](O)[C@@H](CO)O3)nc2c1	2.8	-1.0
CCn1c(SCC(=O)Nc2cc(C)ccc2C)nc2c(c1=O)SC(C)C2 (stereo not given)	-2.1	-5.5
COc1cccc(CN2CCCC(NC(=O)COc3ccc(C(C)=O)cc3)C2)c1 (stereo not given)	3.9	-1.8
C=CCn1c(SCCN2CCCC2)nc2c([nH]c3ccccc32)c1=O	0.1	-1.6
Cc1nc(C(C)NC(=O)c2cc(CN(C)Cc3ccccc3)on2)n[nH]1 (stereo not given)	0.6	-6.7
O=C(Cc1c[nH]c2ccccc12)NN1C(=O)C2=C(CCC2)C1=O	0.2	-3.9
CC(O)CCN(C)c1ncnc2ccc(F)cc12 (stereo not given)	4.1	2.6
C=CCc1cccc2cc(C(=O)Nc3ccc(NC(C)=O)cc3)c(=O)oc12	-2.5	-2.9
CCOC(=O)c1ccc(Cn2c3ccc(OC(F)(F)F)cc3c3nc4ccccc4nc32)o1	-5.0	7.8
Cc1cc(F)ccc1S(=O)(=O)N1CCN(Cc2ccco2)CC1	-0.8	-4.2
CC1CC(C)CN(C(=O)C2CCN(S(=O)(=O)c3cccc(C(F)(F)F)c3)CC2)C1 (stereo not given)	0.0	20.2

Copied from the results shown (2 entries):
SMILES	NPYLR7 agonist	NPYLR7 agonist max-min
CCn1c(SCC(=O)Nc2cc(C)ccc2C)nc2c(c1=O)SC(C)C2 (stereo not given)	-2.1	-5.5
COc1cccc(CN2CCCC(NC(=O)COc3ccc(C(C)=O)cc3)C2)c1 (stereo not given)	3.9	-1.8

The results go on:
SMILES	NPYLR7 agonist	NPYLR7 agonist max-min
CCc1ccc(S(=O)(=O)NCCN2CCN(c3ccc(OC)cc3)CC2)s1	-1.8	-4.6
COc1ccccc1CCC(=O)N1CCC(CCC(=O)Nc2cccc(C)c2)CC1	7.5	3.5
CC(CCO)SCc1nc(C(C)(C)C)no1 (stereo not given)	-1.6	-5.0
CC(NC(=O)COc1ccc(F)cc1)c1nc2ccccc2[nH]1 (stereo not given)	1.9	5.4
S=c1[nH]nc(-c2cc(-c3ccccc3)nc3ccccc23)n1-c1ccccc1	-2.9	-8.7
O=C(c1ccccc1)c1cccc(N=Cc2c(O)[nH]c(=O)[nH]c2=O)c1	3.4	0.7
O=c1c2cc(Br)ccc2ncn1CC(O)COc1cccc2ccccc12 (stereo not given)	9.4	2.7
CCOc1cc(Cl)c(S(=O)(=O)N2CCCC2)cc1Cl	1.1	1.5
O=C(O)c1ccc([N+](=O)[O-])c2c1NC(C1CC=CCC1)C1CC=CC21 (stereo not given)	-3.2	5.8
Cc1[nH]c(=O)[nH]c(=O)c1CCC(=O)NCC1(c2ccc(F)cc2)CCC1	1.5	-3.1

Compound profiles, from the list above.
Record of O=C(c1ccccc1)c1cccc(N=Cc2c(O)[nH]c(=O)[nH]c2=O)c1 → NPYLR7 agonist: 3.4; NPYLR7 agonist max-min: 0.7
Record of Cc1[nH]c(=O)[nH]c(=O)c1CCC(=O)NCC1(c2ccc(F)cc2)CCC1 → NPYLR7 agonist: 1.5; NPYLR7 agonist max-min: -3.1
Record of COc1ccccc1CCC(=O)N1CCC(CCC(=O)Nc2cccc(C)c2)CC1 → NPYLR7 agonist: 7.5; NPYLR7 agonist max-min: 3.5

Remaining list, next part.
SMILES	NPYLR7 agonist	NPYLR7 agonist max-min
CC12CC3CC(C)(C1)CC(C(=O)N[C@H]1COC[C@@H]1N1CCOCC1)(C3)C2	8.9	6.2
CCSc1oc(-c2ccco2)nc1S(=O)(=O)c1ccccc1	1.0	-0.8
Cc1ccccc1N1C(=O)CC(SC2=NCCS2)C1=O (stereo not given)	2.4	1.4
C#CCN(Cc1ccco1)CC(O)COCC (stereo not given)	16.6	6.7
Cc1ccc(Cc2nsc(N(CCC(=O)N(CCN(C)C)Cc3ccccc3)Cc3ccco3)n2)cc1	11.7	9.8
CCOC(=O)C1CCN(C(c2ccccc2Cl)C2Sc3nc(CC)nn3C2=O)CC1 (stereo not given)	-0.4	10.3
Cc1ccc(C(=O)N(CC(C)C)CC2CN(C(=O)c3ccoc3)CCO2)cc1 (stereo not given)	3.3	0.8
NC(=O)CSc1ccc(-c2cccnc2)nn1	-14.6	-19.3
CN1C(C(=O)Nc2ccccn2)=C(O)c2ccccc2S1(=O)=O	-0.7&-0.6&5.5&1.4	-6.3&-5.3&-0.2&2.0
O=C(CC1CCCCC1)NS(=O)(=O)c1cccc2nsnc12	9.7	7.9
CCOc1ccc(-c2cnc(C3CCN(CCOC)CC3)[nH]2)cc1	10.3	2.8
COc1cccc(N2C(=S)N(c3ccccc3)C3CS(=O)(=O)CC32)c1 (stereo not given)	2.5	0.7
Cc1ccc2nc(C)c(NC(=O)c3cccs3)c(=O)n2c1	3.2	0.8
COc1ccccc1CN(CCC(C)C)CC(O)COCc1ccco1 (stereo not given)	14.0	18.5
Cc1cc(CSc2ncc(C#N)c(N)n2)no1	0.8	2.0
Cc1nn(C)c(Cl)c1-c1nc2c([nH]1)c(C)nn2Cc1ccccc1Cl	5.6	1.8
CCN1C(=O)NC(c2ccccc2[N+](=O)[O-])C(C(=O)OCCOC)=C1C (stereo not given)	-1.2	-9.9
CSc1nnc(CC2CCN(c3cc(NC(C)C)ncn3)CC2)n1C	0.9	-1.5
Cc1noc(C)c1CN1CCC(NC(=O)C2CCCCC2)CC1	3.6	0.5
CN1CCN(/N=C2\CCc3c(Cl)cccc32)CC1	0.8	-0.3
Cc1nc2ccc(C(=O)N3CCc4c(cnn4-c4ccc(Cl)cc4)C3)cc2[nH]1	-0.3	11.2
CCN(C(=O)NC1CCCCC1)C(C)c1nc2ccccc2c(=O)n1-c1cc(OC)cc(OC)c1Br (stereo not given)	4.5	6.2
CCCCn1nnnc1NCc1cccc(OCC)c1	-0.1	-1.7
O=C(c1ccc([N+](=O)[O-])cc1)N1CCSC1c1cccc(Oc2ccccc2)c1 (stereo not given)	9.4	9.8
CC1CN(C)c2ccccc2CN1CC(=O)NCc1ccc(F)cc1 (stereo not given)	-17.2	-24.1
COC(=O)CN(C)Cc1cccc(C(=O)Nc2c(C)cc(C)nc2C)c1	5.8	4.8
O=C1Cc2cc(CCN3CCN(c4nsc5ccccc45)CC3)c(Cl)cc2N1	-6.1	-1.7
Cc1nc2c(c(C)c1CCC(=O)O)c(=O)[nH]n2C	-9.1	-11.0
CCOc1ccc(CN2CCNC(=O)C2CC(=O)N2CC=C(c3ccc(F)cc3)CC2)cc1 (stereo not given)	4.6	2.2
Nc1cc(C(F)(F)F)ccc1Sc1ccccc1C(=O)O	-4.3	-4.7
CCOC(=O)c1c(C)n(-c2cccc(Br)c2)c2c1cc(O)c1ccccc12	2.5	2.5
Cn1cc(CN2CCCC(CCC(=O)N3CCOCC3)C2)cn1 (stereo not given)	23.2	7.2
CC1CCc2ccccc2N1C(=O)CN1C(=O)NC2(CCCC2)C1=O (stereo not given)	-2.9	0.0
O=C(NCc1ccc(-c2ccccc2)cc1)c1cc2n(n1)CCN(Cc1ccc(Cl)cc1)C2=O	16.6	9.1
CCc1ccc(S(=O)(=O)c2cnc(SCC(=O)Nc3cc(OC)cc(OC)c3)[nH]c2=O)cc1	-1.7	-7.6
Clc1ccc2nc(NN=Cc3ccccn3)nc(-c3ccccc3)c2c1	-3.8	-4.5
Cc1noc(C)c1S(=O)(=O)NCCCN1CCCC(C)C1 (stereo not given)	6.2	-2.2
Cc1cn(Cc2ccccc2Br)c(=O)[nH]c1=O	10.9	3.9
CN(C)c1ccc2nc3c(=O)n(C)c(=O)n(C)c3nc2c1	0.2	2.0
COc1ccc(OC)c2sc(N(CCCN(C)C)C(=O)CCS(=O)(=O)c3ccccc3)nc12	2.6	-0.4
O=C(Nc1ccc(-c2cccc3c2CCNC3)cn1)C1CC1	-4.4	-3.6
Cc1ccc(C(CNC(=O)C2CCCC2)N2CCN(C)CC2)cc1 (stereo not given)	-0.6	-2.9
CC(C)(C)OC(=O)N1CCN(C(=O)C2CCN(c3nc4ccccc4[nH]c3=O)CC2)CC1	-0.7	-2.0
CCOc1ccc(N2C(=O)CSC2c2ccncc2)cc1 (stereo not given)	-1.0	-7.6
Nc1nonc1-n1nncc1-c1ccccc1	-1.9	-1.8
Cc1ncsc1CCC(=O)N1CCCC(CNS(=O)(=O)c2cccs2)C1 (stereo not given)	9.4	4.3
O=C(c1ccco1)N1CCN(Cc2nc(C3CC3)cs2)CC1	-5.2	-11.0
O=C1CN(CCc2ccc(F)cc2)C2CS(=O)(=O)CC2N1c1ccc(Cl)cc1 (stereo not given)	8.5	5.7
Cc1ccc2nc(NC(=O)/C=C/c3cccc(I)c3)sc2c1	-6.9	-14.8
CCOC(=O)C1C(=O)OC2(CCOC(C)(C)C2)C1C#N (stereo not given)	1.5	1.2

Some values from above:
For NPYLR7 agonist, `O=C1CN(CCc2ccc(F)cc2)C2CS(=O)(=O)CC2N1c1ccc(Cl)cc1` (stereo not given) has the entry 8.5
For NPYLR7 agonist max-min, `Clc1ccc(-c2nc(CSc3nnc(Cn4cncn4)o3)cs2)cc1` has the entry -5.3
For NPYLR7 agonist, `CC(O)CCN(C)c1ncnc2ccc(F)cc12` (stereo not given) has the entry 4.1

Next section:
SMILES	NPYLR7 agonist	NPYLR7 agonist max-min
O=C(CCN1C(=O)COc2ccccc21)NCC1COc2ccccc2O1 (stereo not given)	6.1	5.2
Cc1nc2ccc(C(=O)Nc3cccc(OCC(=O)N(C)C)c3)cn2c1N(C)CC1CCCCC1	-2.3	-4.5
COc1cccc(C(=O)N2CCc3cc(OC)c(OC)cc3C2c2c(F)cccc2Cl)c1 (stereo not given)	16.8	7.4
CC(C)CCn1ccc2nc3ccn(-c4ccccn4)c(=O)c3cc2c1=O	3.1	7.0
COc1ccc(CCN(C)c2nc(SCc3ccc(C(=O)N4CCOCC4)cc3)nc(C)c2C)cc1OC	-7.0	-4.4
Clc1ccc(Cl)c(-c2nn3c(Cn4cnc5ccccc54)nnc3s2)c1	-0.7	41.5
CC(N)=C(C#N)C(=O)CSc1nnc(SCC(=O)C(C#N)=C(C)N)s1	0.4	2.8
CCn1ncc(S(=O)(=O)N2CCC3(CCCNC3)C2)c1C (stereo not given)	2.3	0.6
CC1CCc2c(sc3ncnc(NCc4ccco4)c23)C1 (stereo not given)	6.0	2.5
N#Cc1c(NC(=O)c2noc3c2CCCC3)sc2c1CCC2	-1.4	-1.4
COc1ccccc1C1c2[nH]c3ccccc3c2CCN1Cc1ccc(NC(C)=O)s1 (stereo not given)	1.2	0.5
CCN(Cc1cccc(NCc2scnc2C)c1)C(C)=O	8.3	7.8
CC1CCCC(C)N1CC(O)COC12CC3CC(CC(C3)C1)C2 (stereo not given)	4.3	3.0
COc1ccc(CC(N)c2csc(Nc3nc(C)cnc3C)n2)cc1 (stereo not given)	-2.4	-5.3
Cc1ccc(C2c3ccsc3CCN2C(=O)CN(C(=O)/C=C/c2ccccc2)C2CC2)cc1 (stereo not given)	-3.8	0.6
NC(=O)CSc1nnc2scc(-c3ccc(Cl)cc3)n12	11.4	14.2
COc1ccc(CN2CCNC(=O)C2CC(=O)N2CCCN(C(C)=O)CC2)cc1OC (stereo not given)	3.7&0.2	2.2&-2.0
COc1cccc(CNC(=O)CCC2CCCN(C(=O)c3cccnc3SC)C2)c1 (stereo not given)	1.6	0.2
O=C(Nc1cccs1)N1CCC(c2nnc(-c3ccc(F)cc3)o2)CC1	-16.9	-20.0
CCOC(=O)C1=C(C)N(C)C(=O)NC1c1ccccc1F (stereo not given)	8.2&3.4	12.1&-4.7
